m-calpain inh – blocks pig calpain II enzyme activity | purified calpain II, fluorogenic peptide substrate, 30 min | inhibition, % at 16 µM | 0.37% of 220,000 active | AID 1236;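 active = inhibition above about 50%, limit read from the data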
Furin inh – blocks human furin protease activity | P09958 | purified furin, fluorogenic substrate cleavage | inhibition, % at 30 µM | 0.061% of 220,000 active; in the data active = inhibition above about 25%; also: inactives centre near -15
hK5 inh – kallikrein 5 (human) inhibition; recombinant hK5, fluorogenic AMC substrate cleavage; inhibition, % at 5 µM; 0.59% of 210,000 active;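 active = inhibition of 40% or more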;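 also: 0% = enzyme controls without compound and 100% = no-enzyme blanks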
thrombin 1536 – thrombin (human) inhibition; alpha-thrombin, Boc-VPR-AMC fluorogenic substrate cleavage; 0.26% of 220,000 active; inhibition, % at 5 µM; P00734;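 active = inhibition at or above 40%; inactive = inhibition below 40%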;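 also: 0% = enzyme with no compound and 100% = wells without enzyme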
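Material: Human alpha-thrombin protein | Buffer or medium: pH 7.5 Tris-saline with Tween 20 | Reagent: Boc-VPR-AMC substrate, 15 µM final | Schedule: Reaction at ambient temperature | Detection: AMC fluorescence at 355 nm excitation and 460 nm emission | Evaluation: Percent inhibition scaled between no-compound controls and no-enzyme blanks | Controls: no-compound enzyme wells and no-enzyme blanks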
PERK inhibitor – blocks human PERK kinase. CHO PERK-DD fusion, SEAP luminescence translation reporter. inhibition, % at 5.6 µM. 0.17% of 220,000 active;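 active = inhibition above the mean inhibition of all tested compounds plus 3 SD, set separately per screening campaign, cut at about 2.9% in these data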;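 also: PERK kinase domain activated by AP20187 dimerizer at 100 nM; 0% = DMSO with dimerizer and 100% = rapamycin at 8.4 µM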
Target sequence (Q9NZJ5 whole entry, looked up, the tested form may be a part): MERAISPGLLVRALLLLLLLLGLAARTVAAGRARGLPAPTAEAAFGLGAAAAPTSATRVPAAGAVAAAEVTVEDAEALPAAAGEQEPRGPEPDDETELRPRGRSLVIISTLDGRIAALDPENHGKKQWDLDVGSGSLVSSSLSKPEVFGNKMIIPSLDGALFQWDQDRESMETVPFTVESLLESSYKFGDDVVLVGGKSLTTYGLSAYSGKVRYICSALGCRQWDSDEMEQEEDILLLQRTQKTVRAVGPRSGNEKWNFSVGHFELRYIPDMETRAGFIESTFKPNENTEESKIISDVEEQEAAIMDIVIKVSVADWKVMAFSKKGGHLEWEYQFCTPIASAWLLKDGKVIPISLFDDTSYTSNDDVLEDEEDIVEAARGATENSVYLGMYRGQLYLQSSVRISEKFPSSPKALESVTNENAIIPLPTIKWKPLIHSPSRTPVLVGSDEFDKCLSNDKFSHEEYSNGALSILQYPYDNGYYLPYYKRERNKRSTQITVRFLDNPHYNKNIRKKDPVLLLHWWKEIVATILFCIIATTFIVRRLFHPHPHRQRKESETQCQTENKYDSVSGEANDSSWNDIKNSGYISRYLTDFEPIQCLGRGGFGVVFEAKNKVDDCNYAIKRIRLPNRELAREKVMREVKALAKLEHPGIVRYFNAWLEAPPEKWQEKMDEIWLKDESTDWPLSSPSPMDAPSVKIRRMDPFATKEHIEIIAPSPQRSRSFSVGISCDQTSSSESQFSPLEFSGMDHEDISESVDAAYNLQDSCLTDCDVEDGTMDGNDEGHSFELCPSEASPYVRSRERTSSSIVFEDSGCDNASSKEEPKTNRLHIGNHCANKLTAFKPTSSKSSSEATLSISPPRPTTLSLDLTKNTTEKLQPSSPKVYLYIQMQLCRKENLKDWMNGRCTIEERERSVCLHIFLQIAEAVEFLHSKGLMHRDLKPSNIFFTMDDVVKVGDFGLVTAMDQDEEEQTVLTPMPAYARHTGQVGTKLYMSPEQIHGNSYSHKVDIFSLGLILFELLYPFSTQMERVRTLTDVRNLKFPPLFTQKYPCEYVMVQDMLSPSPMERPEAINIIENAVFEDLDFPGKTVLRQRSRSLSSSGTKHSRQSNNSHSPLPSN
Rad51 HR inh – blocks human Rad51 in homologous recombination | Q06609 | hRad51 DNA strand exchange, fluorescence dequenching | inhibition, % at 10 µM | 0.085% of 200,000 active | AID 1385;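 active = inhibition above 40% at the single screening dose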;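 also: 0% = DMSO control wells and 100% = blanks with heterologous ssDNA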
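Read-out basis: percent inhibition relative to plate controls and blanks / Assay system: human Rad51 nucleoprotein filaments preassembled on unlabelled ssDNA / Timing: filaments 15 min 37 °C, then compound 30 min / Control set: per-plate controls and blanks / Technique: fluorescence dequenching at 485/520 nm / Compound: 10 µM final, single point / Also added: Fluorescein- and BHQ1-tagged 47-mer duplex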
Cl transport mod – modulators of human KCC2 chloride dependent transport | Q9H2X9 | KCC2 cells, thallium flux FluoZin-2 fluorescence | B-score of Tl+ flux slope (higher = more flux/activation; lower = inhibition) at 10 µM | 2.2% of 190,000 active | AID 1456;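 active = thallium flux slope and its plate-corrected score both differing from the plate sample mean at a set confidence after two filtering rounds, in either direction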;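 also: slope of fluorescence scaled to starting intensity during 10 to 20 s after thallium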
* marks the source's active call; other numbers are inactive results; x = no result given; [ ] = another dose, or the depositor's remark. Some of the compounds tested; the hit share may differ from the screen's.

SMILES	m-calpain inh	Furin inh	hK5 inh	thrombin 1536	PERK inhibitor	Rad51 HR inh	Cl transport mod
CN1CCNC(=O)C1CC(=O)NCC1(c2ccccc2)CCCCC1 (stereo not given)	-4.6	-9.3	11.3	4.8	0.6	-8.4	0.863
CCOc1ccc2c(c1)/C(=C(\C(Cl)=C(Cl)Cl)[N+](=O)[O-])N2	-53.4	-2.3	3.0	-9.1	-0.1	-19.8	0.00694
O=C(CSc1ccc2c(c1)OCCO2)Nc1ccc(Cl)cn1	4.5	-22.9	-8.2	-4.6	1.1	2.5	-0.0295
COc1ccc(C2=NOC(C(=O)Nc3c(C)n(C)n(-c4ccccc4)c3=O)C2)cc1OC (stereo not given)	1.0	-17.1	-0.9	-2.0	0.7	-2.6	x
COc1ccc(OC(=O)c2ccncc2)cc1	-39.0	-19.7	-2.7	-0.5	1.8	4.3	1.12
CCOC(=O)C1CCN(C(=O)C2CCN(S(=O)(=O)CC)CC2)CC1	-21.7	-5.5	-4.1	-6.2	-0.1	-0.7	1.24
C/C(=N\NC(=O)CNC(=O)C(c1ccccc1)c1ccccc1)c1ccccc1	9.1	-12.7	-6.0	-5.2	1.4	-5.1	0.933
COc1ccc(C2=NOC(C(=O)Nc3cc(Br)ccc3O)C2)cc1OC (stereo not given)	-15.9	-1.9[20 µM]	-6.6	0.1	-1.1	x	-0.00537
COC(=O)C1CN(S(=O)(=O)c2ccc(C)cc2)CCN1S(=O)(=O)c1ccc(C)cc1 (stereo not given)	16.8	-21.1	2.8	-2.2	0.4	-9.8	-0.955
CC(=O)OCCc1c(C)nc2nc[nH]n2c1=O	7.2	-19.1[20 µM]	-20.2	-14.4	0.5	-3.6	-0.217
O=C1C(=O)N(c2ccccc2)c2ccccc21	-31.4	-21.4[20 µM]	-1.0	2.1	-0.1	7.5	x
O=C(CSc1nnc2c(Cl)cc(C(F)(F)F)cn12)NCc1ccc(F)cc1	-73.4	-21.1	-27.4	-3.6	0.2	-9.1	0.526
CC(CCc1ccccc1)NC(=O)COC(=O)C1CCC(C(C)(C)C)CC1 (stereo not given)	6.7	-4.3	-9.6	-15.8	0.6	-4.0	-1.49
CC1CN=C(N(C(=O)Nc2ccccc2)C(C)c2ccccc2)S1 (stereo not given)	-12.3	-6.2	-1.1	-2.9	0.8	x	-0.745
Cc1sc2nc(CN3CCCC3)nc(N3CCN(S(=O)(=O)c4cccs4)CC3)c2c1C	-77.1	-8.6	-7.0	-3.8	-0.8	-0.6	x

Part of the list above, field by field:
O=C(CSc1nnc2c(Cl)cc(C(F)(F)F)cn12)NCc1ccc(F)cc1
  m-calpain inh: -73.4; Furin inh: -21.1; hK5 inh: -27.4; thrombin 1536: -3.6; PERK inhibitor: 0.2; Rad51 HR inh: -9.1; Cl transport mod: 0.526

O=C1C(=O)N(c2ccccc2)c2ccccc21
  m-calpain inh: -31.4; Furin inh: -21.4[20 µM]; hK5 inh: -1.0; thrombin 1536: 2.1; PERK inhibitor: -0.1; Rad51 HR inh: 7.5; Cl transport mod: x

COc1ccc(C2=NOC(C(=O)Nc3cc(Br)ccc3O)C2)cc1OC (stereo not given)
  m-calpain inh: -15.9; Furin inh: -1.9[20 µM]; hK5 inh: -6.6; thrombin 1536: 0.1; PERK inhibitor: -1.1; Rad51 HR inh: x; Cl transport mod: -0.00537

Cc1sc2nc(CN3CCCC3)nc(N3CCN(S(=O)(=O)c4cccs4)CC3)c2c1C
  m-calpain inh: -77.1; Furin inh: -8.6; hK5 inh: -7.0; thrombin 1536: -3.8; PERK inhibitor: -0.8; Rad51 HR inh: -0.6; Cl transport mod: x

(further entries)
SMILES	m-calpain inh	Furin inh	hK5 inh	thrombin 1536	PERK inhibitor	Rad51 HR inh	Cl transport mod
O=C(O)C1c2ccccc2C(=O)N(Cc2ccc(F)cc2)C1c1ccncc1 (stereo not given)	3.4	-10.0	-1.6	-4.8	0.6	0.4	0.645
CC(C)N(C)CCOC(=O)c1ccc2c(c1)OCCO2	-15.7	-12.8[20 µM]	-2.8	2.9	0.1	0.7	0.119
CCCCCNCc1cccc(Br)c1	2.7	-21.8[20 µM]	3.3	-0.3	-0.4	-6.2	-0.155
C/C(=N\NC(=O)c1ccc(NS(=O)(=O)c2cccs2)cc1)c1ccccc1	2.2	-17.8	-16.1	-9.5	0.9	4.8	-1.23
Cc1ccc(-c2nnc(SCC(=O)Nc3nc4c(s3)CCCC4)n2C)cc1	-33.7	-34.5	-5.3	2.5	0.8	1.7	0.652
CC(C)C(C(=O)OCC(=O)c1ccc2c(c1)NC(=O)CO2)N1C(=O)c2ccccc2C1=O (stereo not given)	11.3	-8.7	-2.1	0.1	0.5	1.1	0.293
COc1ccc(-c2nnc(S/C(=C/c3ccc(Cl)cc3)C(=O)O)o2)cc1	-20.0	-27.5	1.6	x	1.2	-1.4	-3.05*
CCOc1cc(S(=O)(=O)NCc2ccc3c(c2)OCO3)c(C)cc1C	4.9	-19.2[20 µM]	-0.2	-2.3	0.2	-2.8	x
Cc1cccc(N2C(=O)SC(N(CC(=O)O)c3cccc(C)c3)C2=O)c1 (stereo not given)	-38.8	-17.0	-10.4	-11.5	0.9	3.4	x
CC(O)c1cccc(NC(=O)CCCc2ccccc2)c1 (stereo not given)	18.6	-19.7	-1.2	-12.8	0.6	-0.1	-0.276
Cc1cccc(N2CCN(C(=O)c3ccc4nc(-c5ccco5)c(-c5ccco5)nc4c3)CC2C)c1 (stereo not given)	-168.2	-3.0[20 µM]	-21.1	6.7	-0.5	0.3	0.822
CCOC(=O)c1cc(OC(=O)c2ccccc2)n(-c2ccccc2)n1	-0.6	-25.2[20 µM]	-2.1	-4.8	-0.2	0.6	0.725
O=C(c1cc2nc(-c3cccs3)cc(C(F)(F)F)n2n1)N1CCCc2ccccc21	-6.8	-7.2[20 µM]	-9.1	3.6	-0.3	8.7	-0.566
COc1ccccc1NC(C)C(=O)Nc1ccc(C(C)=O)cc1 (stereo not given)	20.2	-6.5	-7.8	-4.7	0.8	3.0	1.17
COc1ccccc1-c1ccc(=O)n(CC(=O)NCc2ccco2)n1	-13.7	4.4	-2.5	4.0	0.9	10.8	-0.0149

Single records (already shown):
Profile of `CC(=O)OCCc1c(C)nc2nc[nH]n2c1=O` : m-calpain inh: 7.2; Furin inh: -19.1[20 µM]; hK5 inh: -20.2; thrombin 1536: -14.4; PERK inhibitor: 0.5; Rad51 HR inh: -3.6; Cl transport mod: -0.217
Profile of `COc1ccc(C2=NOC(C(=O)Nc3cc(Br)ccc3O)C2)cc1OC` (stereo not given) : m-calpain inh: -15.9; Furin inh: -1.9[20 µM]; hK5 inh: -6.6; thrombin 1536: 0.1; PERK inhibitor: -1.1; Rad51 HR inh: x; Cl transport mod: -0.00537

Additional compounds:
SMILES	m-calpain inh	Furin inh	hK5 inh	thrombin 1536	PERK inhibitor	Rad51 HR inh	Cl transport mod
CCN1CCCC1CNS(=O)(=O)c1cccc(C(F)(F)F)c1 (stereo not given)	-31.2	-29.4	6.6	-9.6	1.5	28.6	0.539
O=C1Nc2cc(C(=O)N3CCc4ccccc4C3)ccc2S/C1=C\c1ccccc1	-58.0	-6.5	-0.5	2.7	-1.2	19.4	-0.00624
C=CCn1c(CCNC(=O)c2cccs2)nnc1SCC(=O)Nc1cccc(C(C)=O)c1	30.1	-13.2[20 µM]	-1.9	3.0	-0.8	0.6	0.00216
CCn1c(COc2ccc(Cl)cc2)nnc1SCC(=O)Nc1ccc2c(c1)OCCO2	-3.2	-21.2	13.9	-0.4	0.5	3.4	-0.257
C=CCN(C(=O)Nc1ccc2c(c1)nc(C)n2C)c1ccccc1	-2.3	-0.1	41.0*	43.6*	0.0	-11.2	-0.205
Cc1ccc(NC(=O)c2nc[nH]c2C(=O)Nc2ccc(C)cc2)cc1	-49.4	-14.0[20 µM]	11.9	-3.6	0.5	7.2	-0.932
Cc1cc2cc(C(c3nnnn3Cc3ccco3)N3CCc4ccccc43)c(=O)[nH]c2cc1C (stereo not given)	-339.2	-32.6	-3.7	-1.5	-0.6	-13.8	-0.0768
C/C(=N\NC(=S)Nc1ccc(F)cc1)C1CC1	18.2	0.3[20 µM]	-38.0	-1.3	-0.2	-1.8	8.39*
CCCC(=O)n1nc(-c2ccccc2)nc1N	-23.2	-5.7[20 µM]	-7.7	27.1	-0.5	6.5	0.844
Cc1ccc(C)c2c1cc(C)c1nnc(SCC(=O)Nc3nc4c(s3)CCCC4)n12	-9.8	-17.6	-13.6	-4.5	-0.4	10.3	-0.889
COc1ccc(S(=O)(=O)Cc2ccc(C(=O)N3CCN(c4cccc(C)c4)C(C)C3)o2)cc1 (stereo not given)	-4.3	-14.6	-0.3	1.4	0.5	2.2	x
Cc1cnn(C(=S)NCc2ccc(Cl)cc2)c1	30.3	-24.8[20 µM]	7.4	-4.0	-0.1	-6.9	0.866
O=C(CSc1nc(-c2ccco2)cc(C(F)(F)F)n1)N1CCN(c2ccc(Cl)cc2)CC1	-12.4	-6.9[20 µM]	-0.9	0.1	0.5	1.1	1.41
COc1ccc(S(=O)(=O)N2CCCN(CCC(=O)Nc3cccc(C(F)(F)F)c3)CC2)cc1	1.8	-23.9	-4.0	-5.1	-0.7	x	-3.01
COc1ccc(-c2nc3ccccc3o2)cc1NC(=O)c1ccc(Br)o1	-41.9	-13.9	-8.0	3.9	0.6	-7.3	x
O=C(NC1CCCC1)C1CCN(c2cnccn2)CC1	-30.5	-3.0	-7.3	-2.4	1.1	-16.6	-0.208
Cc1cc(-c2cc(-c3ccccc3)on2)nc(NC2CCCC2)n1	36.9	-18.1	-4.2	-10.7	x	-16.7	0.942
O=C(CSc1nc(-c2ccco2)cc(C(F)(F)F)n1)Nc1ccc2c(c1)CCC2	23.4	-10.1[20 µM]	-19.5	-3.4	1.8	x	-0.586
COc1ccc(-c2nc(-c3ccc(NC(=O)c4ccncc4)cc3)no2)cc1OC	-110.7	-6.9	2.5	-0.2	-1.1	5.7	-0.377
CC(=O)Nc1ccc2oc(-c3ccccc3Br)nc2c1	-143.9	-5.4	-5.1	3.9	-0.5	x	-0.532
O=C(NCCCN1CCOCC1)c1ccccc1NS(=O)(=O)c1cc([N+](=O)[O-])ccc1Cl	20.3	-7.1	-0.1	-2.0	0.2	5.6	0.106
c1ccc(-c2nn3cnnc3c3ccccc23)cc1	14.0	-15.3	-1.4	-4.7	1.5	-11.3	-0.131
COc1cccc(-c2nc(-c3ccc(NC(=O)c4cccs4)cc3)no2)c1	-155.3	-36.9	3.4	-5.3	1.8	-7.8	1.69
CCCc1nn(C(=O)c2ccccc2)c2c1C(=O)CC(C)(C)C2	-8.9	-21.7[20 µM]	25.2	8.8	-0.1	x	0.818
COc1cc(C)c(Cl)c(C)c1S(=O)(=O)NCc1ccc2c(c1)OCO2	-6.2	-2.4[20 µM]	-6.7	0.8	0.0	-6.7	0.336
COc1ccc(-c2nc(N)n(C(=O)c3ccc(C)cc3)n2)cc1	9.2	-8.0	-2.3	-2.8	-0.1	3.9	-1.1
C=CCn1c(N)cc(=O)nc1SCC(=O)Nc1ccccc1	-24.9	-13.2	-12.5	-4.3	1.0	-6.9	x
CC(C)C(NC(=O)c1c(F)cccc1F)C(=O)NCC(c1ccccc1)N(C)C (stereo not given)	6.2	8.0	3.9	0.5	0.1	3.1	0.29
COC(=O)c1ccc(CSc2nncn2C)cc1	-30.5	-15.9	-8.0	1.0	0.7	x	0.57
c1ccc(Cn2c(-c3ccccc3)nc3nc4ccccc4nc32)cc1	-122.8	-22.2	-23.1	-0.8	0.2	-2.3	-0.384
COc1cc(OC)c(/C=N/n2c(C)nnc2C)c(OC)c1	0.3	-35.7	-19.1	-7.5	0.3	x	0.266
CCOC(=O)Nc1cccc(OCC(=O)Nc2ccc(OC)cc2OC)c1	-21.6	-23.0	6.7	-0.4	-0.2	-10.4	-0.547
CCOc1ccc(NC(=O)C2(c3ccc(OC)c(OC)c3)CCCC2)cc1	10.3	-30.1	-2.2	-0.8	-0.9	-5.2	0.815
CCn1c(Cc2ccccc2)nnc1SCC(=O)Nc1ccc(C)cc1	-9.1	-0.8[20 µM]	-7.3	-0.3	-0.5	7.4	-0.462
CCn1c(SCC(=O)NCc2ccco2)nc2ccccc2c1=O	-38.9	-23.3	1.3	-4.3	-0.4	-5.0	0.667

High-throughput results as filed in PubChem.
